Source: PubChem (National Center for Advancing Translational Sciences (NCATS))
Six1-Eya2 inh: blocks human Six1 binding to Eya2; Q15475+O00167; AlphaScreen GST-Six1/His-Eya2 binding, biochemical; hits give low values; control for the full effect not named in the record; activity change, % (no concentration beside the values); hit rate 0.56% among 360,000; AID 651725; in the data active = activity change below about -65%; inconclusive = about -30% to -65%; inactive = above about -30%; further: on the % scale 0 is the no-effect control and ±100 the full control effect; compound concentration not given in the record
Target sequence (O00167 whole entry, looked up): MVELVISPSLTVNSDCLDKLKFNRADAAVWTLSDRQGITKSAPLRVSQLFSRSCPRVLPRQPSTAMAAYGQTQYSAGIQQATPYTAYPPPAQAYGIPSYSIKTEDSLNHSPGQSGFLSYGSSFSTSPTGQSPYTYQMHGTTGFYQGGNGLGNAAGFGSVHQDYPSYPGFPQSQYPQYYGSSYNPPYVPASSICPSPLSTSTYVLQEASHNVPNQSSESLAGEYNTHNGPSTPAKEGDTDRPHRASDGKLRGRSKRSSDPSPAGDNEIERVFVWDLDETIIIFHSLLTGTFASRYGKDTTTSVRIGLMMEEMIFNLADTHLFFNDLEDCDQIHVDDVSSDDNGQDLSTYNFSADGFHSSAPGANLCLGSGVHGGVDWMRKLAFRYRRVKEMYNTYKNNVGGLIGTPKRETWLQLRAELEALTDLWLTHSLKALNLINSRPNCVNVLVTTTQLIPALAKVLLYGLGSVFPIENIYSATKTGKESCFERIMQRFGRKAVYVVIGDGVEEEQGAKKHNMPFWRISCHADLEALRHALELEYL
Target sequence (Q15475 whole entry, looked up): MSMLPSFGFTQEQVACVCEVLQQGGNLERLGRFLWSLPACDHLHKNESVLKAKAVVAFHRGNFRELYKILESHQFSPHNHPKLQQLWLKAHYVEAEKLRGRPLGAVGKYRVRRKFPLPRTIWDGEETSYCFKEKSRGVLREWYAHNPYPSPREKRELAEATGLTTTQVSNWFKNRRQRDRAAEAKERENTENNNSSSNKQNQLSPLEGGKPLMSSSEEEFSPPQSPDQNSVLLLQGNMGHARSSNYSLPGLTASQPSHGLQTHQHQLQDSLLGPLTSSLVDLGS
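Compounds are tested against tagged Six1 and Eya2 proteins bridged by glutathione donor and nickel acceptor beads; after a one-hour incubation at 37 °C without light, AlphaScreen emission is recorded.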
D2 potentiator: potentiates the human D2 dopamine receptor allosterically; hit rate 0.23% among 360,000; potentiation, % (no concentration beside the values); AID 624464; P14416; DiscoveRx D2 beta-arrestin cells, luminescence, 90 min; 100% = 57 uM dopamine signal; active = potentiation of 50% or more; inconclusive = 30% to 50%; inactive = 30% or less;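 further: compound concentration not given in the record; tested on top of an EC20 dose of dopamine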
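PathHunter D2 cells, attached overnight at 37 deg C, received compound in DMSO plus dopamine at EC20 (50 nM final) for 90 min at 37 deg C. Beta-arrestin recruitment was read as luminescence after 1 h with detection reagent at ambient temperature.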
gsp antag: antagonizes gsp, the McCune-Albright syndrome mutation; hit rate 0.4% among 340,000; gsp-mutant cells, cAMP HTRF, 30 min; control for the full effect not named in the record; Potency, µM (highest dose often 76.9 µM), for the others: at the top dose activity change, negative = inhibition, most hits filed as inhibitors; active = falling curve of any shape with a large fitted effect; inconclusive = falling curve, mostly with a smaller effect; inactive = flat or rising curve; cell line not stated here;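 further: intracellular cAMP measured with PDE inhibitor Ro 20-1724 present during compound exposure; potency means the concentration at half of the fitted maximal effect; on the % scale 0 is the no-effect control and ±100 the full control effect; nearly all actives have a fitted effect of over 65% in size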
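HTRF cAMP read-out (cAMP-d2 plus anti-cAMP antibody-K in lysis buffer, 30 min RT). Before lysis, cells are exposed to compounds with […] for 30 min at 37C in DPBS containing Ca/Mg, BSA and Tween 20.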
CtBP-E1A blk: CtBP/E1A binding inhibition; activity change, % (no concentration beside the values); hit rate 0.49% among 340,000; AID 651724; AlphaScreen GST-E1A/His-CtBP binding, 1536-well; hits give low values; control for the full effect not named in the record; in the data active means activity change below about -65%; inconclusive means about -30% to -65%; inactive means above about -30%; further: on the % scale 0 is the no-effect control and ±100 the full control effect; compound concentration not given in the record
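GST-E1A and His-tagged CtBP (125 nM each as 5X stock) were preincubated with pin-transferred compound for 2 h at 37 °C in the dark, then glutathione donor and nickel acceptor beads were added for 1 h before AlphaScreen reading.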
D2 ag: activates the human D2 dopamine receptor; P14416; DiscoveRx PathHunter D2 beta-arrestin, luminescence, 90 min; 100% = 57 uM dopamine signal; activation, % (concentration not given with the values); hit rate 0.084% among 360,000; in the data active = activation above about 40%; inconclusive = about 15% to 40%; inactive = below about 15%; further: compound concentration not given in the record; the text of the record calls up to 30% inactive
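Agonist mode: compounds alone added to overnight-plated D2 PathHunter cells for 90 min at 37 C, with 57 uM final dopamine (EC100) defining full response. Beta-arrestin recruitment detected by chemiluminescent reagent, read after 1 h at ambient temperature.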
gsp agonist: gsp mutant agonism | gsp mutant cells, cAMP HTRF, 30 min; control for the full effect not named in the record | Potency, µM (doses to about 76.9 µM), without a hit: at the top dose activation (cAMP increase), most hits filed as activators | hit rate 0.13% among 340,000 | AID 624287; active = well fitted activation curve with a large enough effect; inconclusive = small, poorly fitted or top-dose-only effect, or another doubt; inactive = no such curve, though single readings can be large or run the other way; cell line not stated here;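 further: phosphodiesterase inhibitor Ro 20-1724 added with compounds to block cAMP breakdown; potency means the concentration at half of the fitted maximal effect; nearly all actives have a fitted effect of over 60% in size; about a fifth of the inactives were tested at one dose only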
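Cells stably selected in G418 were plated at 2000/well, grown 16-24 hr, then given compounds in DMSO with the PDE inhibitor […] (300 uM solution added) for 30 min at 37C; cAMP was read by HTRF.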
The depositor's hits bear a star; ? = inconclusive; . = not tested or not shown; [ ] = dose if it differs, or a comment.

SMILES	Six1-Eya2 inh	D2 potentiator	gsp antag	CtBP-E1A blk	D2 ag	gsp agonist
CC(C)N1CCN(Cc2cc3ccccc3[nH]2)CC1CCO (stereo not drawn)	-7	-10	7%	-2	-5.2	1%[15.4 µM]
c1ccc2sc(Nc3nc4cc5c(cc4s3)OCO5)nc2c1	-6	-31	3%	-2	-0.7	0%
COc1ccccc1/C=N/NC(=O)c1[nH]c(C)c(C(=O)N/N=C/c2ccccc2OC)c1C	?	1	-4%	0	-0.3	17%[15.4 µM]
O=C(CCNC(=O)c1ccccc1Cl)Nc1ccc(Cl)c(C(F)(F)F)c1	18	-7	-2%	.	2.5	-5%
CC(C)CC(=O)Nc1nnn(C)n1	-2	2	-4%	2	0.7	14%
COC(=O)C1CCN(c2cc(=O)n(-c3ccc(OC)cc3)c(=O)[nH]2)CC1	-1	-2	-2%	6	-4.8	-37%[inhibitor]
COc1ccc(NS(=O)(=O)c2cc(NC(=O)c3cnccn3)ccc2OC)cc1Br	-4	0	-17%	-2	-0.2	?
CCOC(=O)c1ccc(Nc2cc3ccccc3c(=O)[nH]2)cc1	17	20	-7%	2	6.1	.
COC(=O)c1ccc(N)c(CS(=O)(=O)c2ccc(Cl)cc2)c1	5	-1	-6%	.	-5.3	-36%[inhibitor]
CCN(CC)c1ccc(NC(=O)CN2CCN(c3nc(C)cc(C)n3)CC2)cc1	?	3	-8%	?	-2.1	-29%
Nc1c([N+](=O)[O-])cc(-c2cnc[nH]2)cc1[N+](=O)[O-]	?	0	4%	.	3.1	0%
CC(=O)OC1C2CCC1C([N+]1(C)CCCCC1)CC2 (stereo not drawn)	1	-4	.	-18	-5.5	8%[15.4 µM]
O=C(O)[C@@H]1CCCN1S(=O)(=O)c1cccc(S(=O)(=O)N2CCC[C@H]2C(=O)O)c1	1	-8	10%	.	0.7	?
CCCCC(=O)Nc1cccc(NC(=O)CC)c1	1	?	-7%	-1	-2.6	-6%
Cc1ccc(NC(=O)CSc2nccn2C)cc1S(=O)(=O)N1CCOCC1	3	-13	0%	0	-2.3	-51%[inhibitor]

Retrieved by structure from the entries so far (five):
SMILES	Six1-Eya2 inh	D2 potentiator	gsp antag	CtBP-E1A blk	D2 ag	gsp agonist
COC(=O)C1CCN(c2cc(=O)n(-c3ccc(OC)cc3)c(=O)[nH]2)CC1	-1	-2	-2%	6	-4.8	-37%[inhibitor]
O=C(O)[C@@H]1CCCN1S(=O)(=O)c1cccc(S(=O)(=O)N2CCC[C@H]2C(=O)O)c1	1	-8	10%	.	0.7	?
CCN(CC)c1ccc(NC(=O)CN2CCN(c3nc(C)cc(C)n3)CC2)cc1	?	3	-8%	?	-2.1	-29%
CCCCC(=O)Nc1cccc(NC(=O)CC)c1	1	?	-7%	-1	-2.6	-6%
CC(C)N1CCN(Cc2cc3ccccc3[nH]2)CC1CCO (stereo not drawn)	-7	-10	7%	-2	-5.2	1%[15.4 µM]

Additional structures.
SMILES	Six1-Eya2 inh	D2 potentiator	gsp antag	CtBP-E1A blk	D2 ag	gsp agonist
CC(C)CCNC(=O)c1cccc(S(=O)(=O)N2CCc3ccccc32)c1	8	-5	-5%	10	-0.2	0%
Cc1cccc(NC(=O)c2cc3n(n2)C(C(F)(F)F)CC(C2CC2)N3)c1C (stereo not drawn)	3	0	7%	10	-0.7	-10%
O=C(Cc1ccc(Cl)cc1)NNC(=S)NC(=O)c1cccnc1	7	-7	3%	-2	3.0	1%
O=C(COc1ccc2ccc(=O)oc2c1)Nc1c(Cl)cccc1C(F)(F)F	-3	13	-9%	-1	-4.0	?
COc1cccc(N2CC(=O)N(NC(=O)CSc3nc(C)cc(C)c3C#N)CC2=O)c1	0	-2	-5%	4	-4.2	-2%[15.4 µM]
COC(=O)c1c(NC(=O)Cc2cccs2)sc(C(=O)N2CCCCC2)c1C	-3	13	2%	4	2.2	6%
CN(C1CCS(=O)(=O)C1)S(=O)(=O)c1ccccc1 (stereo not drawn)	2	-2	16%	3	4.2	21%
CC(C)C[C@@H](CN)NC(=O)c1nc[nH]c1C(=O)N[C@@H](C)C(=O)CNC[C@H](C)NC(=O)c1nc[nH]c1C(=O)N[C@@H](C)C(=O)O	-13	-4	8%	-21	-2.4	.
CCOC(=O)/C(C#N)=N/Nc1ccccc1OC	-6	-5	13%	6	-1.2	-8%
COc1ccc2c(c1)CCc1c(C(=O)Nc3c(C)n(C)n(-c4ccccc4)c3=O)noc1-2	-4	-13	4%	5	-2.7	-3%
CC(C)C[C@H](NC(=O)c1nc[nH]c1C(=O)NC1CCNCC1)C(=O)OCc1ccccc1	1	-24	9%	-1	-2.4	-16%
O=C(/C=C/c1cccc([N+](=O)[O-])c1)OCC(=O)N1CCOCC1	-2	-7	0%	16	0.0	-4%
CCOC(=O)C(C)N1N=C(/C=C/c2ccc(C)cc2)CCC1=O (stereo not drawn)	4	-8	-8%	-1	-3.7	-8%
COc1cc(CN2CCN(S(=O)(=O)c3ccccc3)CC2)cc(OC)c1OC	6	-9	-3%	.	-1.6	-13%
Cc1ccc(S(=O)(=O)Nc2ccc(C(=O)N3CCCC3)cc2)c(C)c1NS(C)(=O)=O	1	-3	7%	10	2.7	?
COc1ccc(N2CCN(C(=O)Cc3ccc(C)cc3)CC2)cc1	-7	-1	-21%	-3	1.8	9%[15.4 µM]
COc1ccc(NC(=O)N2CCCC(C(=O)NCCc3ccccc3)C2)cc1 (stereo not drawn)	2	-3	2%	2	1.1	?
CC(C)(C)C(=O)N1CCN(c2ccc([N+](=O)[O-])c(NCc3cccnc3)c2)CC1	-9	2	-7%	-21	0.9	?
CCSc1nc2c(c(=O)[nH]c(=O)n2C)n1C	1	-8	19%	-4	-0.2	13%
Cc1onc(-c2ccccc2)c1C(=O)NCc1cccs1	0	8	-3%	0	-1.3	1%
CCc1cc2c(=O)c(-c3cscn3)coc2c(CN(C)C)c1O	0	10	-6%	11	4.0	18%
Cc1c(C)c2c(OCC(=O)N3CCC(C(=O)O)CC3)cc3c(c2oc1=O)CCC(C)(C)O3	?	-15	-8%	?	2.1	.
COCCNc1nc(N)c([N+](=O)[O-])c(N2CCCCCC2)n1	6	-2	8%	-16	-0.5	4%
CC(C)N(CCNC(=O)c1ccc(CS(=O)(=O)c2c(Cl)cccc2Cl)o1)Cc1ccccc1	-3	-32	6%	-4	-11	10%
Cc1ccc(NC(=O)Cn2nc(C(F)(F)F)c3c2CCC3)cc1	3	-15	-5%	4	-3.4	-56%[inhibitor]
CCC1CCCCN1CCCNC(=O)CSc1nc2nc(C)c(Cc3ccc(C)cc3)c(C)n2n1 (stereo not drawn)	-7	-13	8%	-2	-3.6	?
COc1cccc(Nc2nc3ccc(C(=O)c4ccccc4)cc3n3cnnc23)c1	-8	-11	-10%	.	-4.3	-24%
CC[C@H](NC(=O)CC[C@H]1O[C@@H](n2cnc3c(NC(=O)c4ccccc4)ncnc32)[C@H](O)[C@@H]1O)c1ccccc1	-1	-7	.	4	-3.0	.
CCc1cc(-c2[nH]ncc2-c2ccc([N+](=O)[O-])cc2)c(O)cc1OC	-7	-2	6%	-3	7.4	-51%[inhibitor]
COc1ccc(N(C(=O)c2cc3ccccc3oc2=O)C2C=CS(=O)(=O)C2)c(OC)c1 (stereo not drawn)	-2	-1	-1%	0	-4.2	-19%[15.4 µM]
CCC(=O)Nc1ccc(S(=O)(=O)Nc2ccc(Cl)nn2)cc1	11	0	5%	3	-1.9	5%
O=C(Nc1cccnc1)c1cccc(S(=O)(=O)N2CCCC2)c1	-6	-2	-7%	-1	2.1	?
CN(c1ccccc1)S(=O)(=O)c1ccc(Cl)c(C(=O)NCC(c2ccco2)N2CCCC2)c1 (stereo not drawn)	-8	3	4%	-2	3.5	?
COc1ccc(/C=C/C(=O)c2ccc(O)cc2)cc1CN1CCOCC1	?	-24	-13%	-86*	-0.2	-10%
CN1CCC(=NNC(=O)CN(c2cccc([N+](=O)[O-])c2)S(=O)(=O)c2ccccc2)CC1	-22	-16	0%	0	-0.6	-15%[15.4 µM]
CC(=O)C1=C(C)N(CC2CC2)C(=O)N[C@H]1c1ccccc1	-1	-25	6%	4	0.3	.
CS(=O)(=O)N(CC(=O)Nc1ccccc1C(=O)NCc1ccco1)c1ccccc1F	-2	-2	5%	3	-1.4	17%[15.4 µM]
CCN(CC)c1ccc(/C=C(\C#N)C(N)=O)cc1	-1	0	5%	6	7.1	-53%[inhibitor]
Nc1cc(N)nc(SCc2ccccc2Cl)n1	-6	10	.	7	2.0	-29%
COc1ccc(C2CN=NC2C(=O)c2ccccc2)cc1 (stereo not drawn)	-9	-12	-13%	.	0.0	2%
Cc1ccc(Sc2ccc(/C=N/O)cc2[N+](=O)[O-])cc1	?	24	5%	?	-6.0	3%
CC1CCCCN1CC(=O)NC(=O)NCc1ccccc1 (stereo not drawn)	2	-7	-1%	5	-5.4	18%[15.4 µM]
NC(=O)C1CCN(C(=O)CCSCc2ccc(Cl)c(Cl)c2)CC1	2	8	-7%	-10	-1.9	-2%[15.4 µM]
CN1CCN(c2ccc(S(=O)(=O)N3CCCCC3)cc2NC(=O)CSCc2ccccc2)CC1	-9	2	0%	-6	-2.2	-4%
O=C(Nc1ccc(Cl)cn1)c1ccc(-c2ccc(Cl)c(Cl)c2)o1	-3	-4	0%	-1	-4.8	8%
COc1cc(NC(=O)c2sc3ncn(CC(=O)N4CCCCC4C)c(=O)c3c2C)cc(OC)c1OC (stereo not drawn)	-1	-6	.	5	-1.2	-33%[inhibitor]
O=C(O)c1ccc2c(c1)N(Cc1cccc(F)c1)C(=O)CS2	10	-1	-7%	0	-4.5	10%
Cc1ccc(Cc2c(-c3ccco3)nc3ccc(Cl)cn23)cc1	?	-5	.	3	-8.8	.
O=C(Nc1cccc(S(=O)(=O)N2CCCCCC2)c1)c1ccc2c(c1)OCO2	?	21	-21%	0	1.8	-14%
CN1CCN(C(=O)/C(=C/c2ccccc2)c2ccccc2)CC1	-2	-15	8%	7	-3.0	-3%
C/C(=N\O)C(=O)NCc1ccncc1	-4	-9	-13%	0	-3.4	-4%
COC(=O)CSc1ccc(S(=O)(=O)N2CCCCCC2)cc1[N+](=O)[O-]	7	-9	6%	0	2.3	-1%
C/C(=N\N=C(/N)c1nonc1N)c1ccc2c(c1)OCO2	-11	-21	-9%	.	-3.4	-11%
CCC1CCC(NC2CCCCNC2=O)CC1 (stereo not drawn)	6	-11	3%	-1	0.8	-2%
COc1ccc(-c2nc(CS(=O)CC(=O)N3CCN(C)CC3)c(C)o2)cc1 (stereo not drawn)	-2	-10	1%	3	-4.6	?
COc1ccc(-c2nn(-c3ccccc3)cc2C(=O)NC2CCC(C)CC2)cc1 (stereo not drawn)	4	-3	1%	0	2.1	29%[15.4 µM]
O=C(O)c1ccccc1C(=O)OC1CCCC2CCCC21 (stereo not drawn)	-4	-12	4%	1	-1.4	?
COc1ccc(NC(=O)c2ccc(-n3cccn3)nc2)cc1	8	-8	14%	1	-3.3	2%
